Rango complex inh = qHTS Assay for Inhibitors of Rango (Ran-regulated importin-beta cargo) - Importin beta complex formation; Potency, µM (doses to about 92.2 µM), for inactives: at the top dose inhibition of complex formation; 0.031% of 340,000 active; AID 540263, 2011; Rango CFP/YFP FRET sensor + importin beta, 45 min; active = rising FRET ratio curve, often small or poorly fitted; inconclusive = mostly compound fluorescence or quenching in the first reads; inactive = flat curves in all reads;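 further: potency means the concentration at half of the fitted maximal effect; 0% = DMSO wells and 100% = buffer wells lacking importin beta; nearly all actives have a fitted effect of over 15% in size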
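Inhibition scored from the CFP 486 nm/YFP 530 nm FRET ratio 45 min after adding 0.125 microM importin beta to 50 nM Rango biosensor preincubated 5 min with compound (room temperature, PBS with DTT, Tween-20, BSA). No-importin wells as positive control.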
GLA inh pH 4.5 = qHTS Assay for Inhibitors of Human alpha-Galactosidase at pH 4.5; 230,000 tested, under 10 active; purified enzyme, 4-MU-alpha-Gal fluorescence, pH 4.5; Alpha-galactosidase A (Homo sapiens), P06280; activity change, negative = inhibition, % at 105 µM; AID 1467, 2008; inconclusive = small, poorly fitted or top-dose-only inhibition, or a rising curve; inactive = flat fitted curve, though single readings scatter; no compound was filed as active;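 further: 0% = full activity with enzyme and -100% = basal without enzyme; dose as in the result columns while the protocol names 77 µM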
Target sequence (P06280 whole entry, looked up): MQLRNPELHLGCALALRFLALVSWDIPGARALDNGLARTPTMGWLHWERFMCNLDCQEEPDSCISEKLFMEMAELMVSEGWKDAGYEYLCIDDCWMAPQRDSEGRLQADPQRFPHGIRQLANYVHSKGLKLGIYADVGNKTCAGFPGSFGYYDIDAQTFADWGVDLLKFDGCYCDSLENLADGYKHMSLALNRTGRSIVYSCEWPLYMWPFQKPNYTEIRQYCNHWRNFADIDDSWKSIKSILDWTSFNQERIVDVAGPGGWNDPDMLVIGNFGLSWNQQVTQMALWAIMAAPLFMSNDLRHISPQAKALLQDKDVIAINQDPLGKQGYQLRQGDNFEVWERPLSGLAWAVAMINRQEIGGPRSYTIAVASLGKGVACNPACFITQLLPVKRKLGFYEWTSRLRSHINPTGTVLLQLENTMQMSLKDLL
Rango dissoc inh = qHTS Assay for Inhibitors of RanGTP induced Rango (Ran-regulated importin-beta cargo) - Importin beta complex dissociation. Snurportin-1 (Homo sapiens) + GTP-binding nuclear protein Ran (Homo sapiens) + Importin …. Biochemical FRET Rango-importin beta, RanGTP-induced dissociation. Potency, µM (titrated, usually from 46.1 µM), for inactives: at the highest dose activity change, negative = inhibition. 0.071% of 340,000 active; active means falling FRET ratio curve, often poorly fitted, with flat reads before Ran was added; inconclusive means other falling curves, or compound fluorescence or quenching; inactive means flat or rising ratio curve;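 further: potency means the concentration at half of the fitted maximal effect; % of control where 0% means no effect; nearly all actives have a fitted effect of over 45% in size; -100% = wells without RanGTP and RCC1; the record marks most hits as doubtful in a second field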
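Rango/importin beta premix (0.1/0.25 uM final), PBS + 1 mM DTT + 0.02% Tween-20 + 0.1% BSA; cpd 5 min RT; FRET pre-read; + RanGTP-RCC1 (0.6 uM Ran, 2 mM GTP, 0.2 uM RCC1); 45 min RT; FRET post-read, ex 430, em 486/530 nm.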
miR-21 FLuc = qHTS Assay for Modulators of miRNAs and/orActivators of miR-21. 340,000 tested, under 10 active. AID 2288, 2010. HeLa miR-21 FLuc reporter, luciferase, 48 h. Potency, µM (top dose mostly 38.3 µM), for the others: at the top dose reporter change, positive = more light; active = well fitted rising curve with a large enough effect; inconclusive = small, poorly fitted or top-dose-only effect; inactive = no such curve, though single readings can be large or run the other way;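 further: % of control where 0% means no effect; miR-21 action dims this reporter so a rising signal means less miR-21 action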
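Using DMEM plus 10% FBS, HeLa miR-21-FLuc cells are incubated with test compounds (final up to about 40uM) for 48 hours; firefly luciferase signal is then imaged following reagent-mediated lysis.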
* = called active by the depositor; [ ] = dose if it differs, or a comment. A portion of the library. The share of hits here may be higher or lower than overall.

`O=C(Nc1nc2ccccc2s1)c1cc(-c2ccccc2)nn1-c1ccccc1` gave Rango complex inh 2.4%, GLA inh pH 4.5 3, Rango dissoc inh 7% and miR-21 FLuc -36%.
For Cc1ccsc1/C=N/NC(=O)c1cc(-c2ccncc2)nc2ccccc12 the results were Rango complex inh 2.7%, GLA inh pH 4.5 -16, Rango dissoc inh -2% and miR-21 FLuc 25%.
For CCN(CC)CCNC(=O)c1ccc(NC(=O)c2cc(-c3ccco3)nc3ccccc23)cc1 the results were Rango complex inh -4.5%, Rango dissoc inh 1% and miR-21 FLuc 1%.
For CN(C)C(=O)CN1C(=O)NC2(CCc3ccccc32)C1=O (stereo not drawn) the results were Rango complex inh 1.0%, Rango dissoc inh 5% and miR-21 FLuc 0%.
Screening CC(C)N1C2OC(C3OC4C(O3)N(C(C)C)S(=O)(=O)N4C(C)C)OC2N(C(C)C)S1(=O)=O (stereo not drawn) returned Rango complex inh -0.9%, GLA inh pH 4.5 4, Rango dissoc inh 1% and miR-21 FLuc -1%.
Screening C#CCOCCOCCOCCNc1nc(N2CCN(C(=O)[C@H](CCCCN)n3cc(CCC(=O)O)nn3)CC2)nc(N2CCN(C(=O)[C@H](CCCCN)n3cc(CC(C)O)nn3)CC2)n1 (stereo partly drawn) returned Rango complex inh 3.7% and Rango dissoc inh -16%.
`Cc1ccccc1OCC1CN(CN2CCOCC2)C(=O)O1` (stereo not drawn) gave Rango complex inh -0.8%, GLA inh pH 4.5 8, Rango dissoc inh 10% and miR-21 FLuc -9%.
Screening COC(=O)c1cn(C)c2ccc(S(=O)(=O)N3CCCCC3)cc2c1=O returned Rango complex inh -2.4%, GLA inh pH 4.5 4, Rango dissoc inh 9% and miR-21 FLuc -1%.
`COc1ccc(-n2c(SCC(=O)Nc3ccc(Cl)cc3)nc(O)c(Cc3ccccc3)c2=O)cc1` gave Rango complex inh 3.4%, Rango dissoc inh 2% and miR-21 FLuc 2%.
COc1ccc(-c2csc(NC(=O)CN3C(=O)C4CC=CCC4C3=O)n2)cc1OC (stereo not drawn) was read as Rango complex inh 0.2% and Rango dissoc inh -19%.
`O=C(CSc1nnc(-c2ccc(NS(=O)(=O)c3ccccc3)cc2)o1)NCC1CCCO1` (stereo not drawn) gave Rango complex inh -2.2%, GLA inh pH 4.5 0, Rango dissoc inh 25% and miR-21 FLuc -3%.
`O=C(COC(=O)c1cc(S(=O)(=O)N2CCOCC2)cs1)c1ccccc1` gave Rango complex inh 1.4%, GLA inh pH 4.5 4, Rango dissoc inh -2% and miR-21 FLuc -10%.
O=C(O)COc1ccccc1/C=N/NC(=O)CSc1nc2ccccc2c(=O)n1-c1ccccc1 was read as Rango complex inh 0.1%, GLA inh pH 4.5 -2, Rango dissoc inh 27% and miR-21 FLuc -2%.
For CCn1cc(Cl)c(C(=O)Nc2cc(C(=O)OC)cc(C(=O)OC)c2)n1 the results were Rango complex inh 8.1%, GLA inh pH 4.5 2, Rango dissoc inh 7% and miR-21 FLuc 2%.
For Cc1ccccc1Nc1nc(=O)c2cc([N+](=O)[O-])ccc2s1 the results were Rango complex inh 4.5%, GLA inh pH 4.5 3, Rango dissoc inh 3% and miR-21 FLuc -2%.

The last four compounds of the part above open the next one.
`O=C(COC(=O)c1cc(S(=O)(=O)N2CCOCC2)cs1)c1ccccc1` gave Rango complex inh 1.4%, GLA inh pH 4.5 4, Rango dissoc inh -2% and miR-21 FLuc -10%.
O=C(O)COc1ccccc1/C=N/NC(=O)CSc1nc2ccccc2c(=O)n1-c1ccccc1 was read as Rango complex inh 0.1%, GLA inh pH 4.5 -2, Rango dissoc inh 27% and miR-21 FLuc -2%.
For CCn1cc(Cl)c(C(=O)Nc2cc(C(=O)OC)cc(C(=O)OC)c2)n1 the results were Rango complex inh 8.1%, GLA inh pH 4.5 2, Rango dissoc inh 7% and miR-21 FLuc 2%.
For Cc1ccccc1Nc1nc(=O)c2cc([N+](=O)[O-])ccc2s1 the results were Rango complex inh 4.5%, GLA inh pH 4.5 3, Rango dissoc inh 3% and miR-21 FLuc -2%.
For O=S(=O)(NCC(c1cccnc1)N1CCN(c2ccccc2F)CC1)c1cccs1 (stereo not drawn) the results were Rango complex inh -0.2%, GLA inh pH 4.5 -4, Rango dissoc inh 2% and miR-21 FLuc -12%.
Screening CCN(CC(=O)Nc1ccc2c(c1)OCCO2)C(=O)CSCC(=O)Nc1ccc(C)cc1 returned Rango complex inh -2.3% and Rango dissoc inh 6%.
For COc1ccc(OC)c(Nc2nc3ccc(C)cc3n3cnnc23)c1 the results were Rango complex inh -0.3%, Rango dissoc inh 15% and miR-21 FLuc -7%.
`CC(=O)Nc1ccc(NC(=O)COC(=O)c2ccccc2C(=O)c2ccccc2)cc1` gave Rango complex inh 0.8% and Rango dissoc inh 1%.
`CCOC(=O)Nc1cc(Br)c2c(c1)OCCO2` gave Rango complex inh -0.8%, GLA inh pH 4.5 -4, Rango dissoc inh 1% and miR-21 FLuc -52%.
Cc1cccc(NC(=O)C2CCCN2C(=O)OCc2ccccc2)c1 (stereo not drawn) was read as Rango complex inh 2.6% and Rango dissoc inh 1%.
COc1ccc(-c2cc(C(=O)O)nc3ccc4ccccc4c23)cc1OC was read as Rango complex inh inconclusive, GLA inh pH 4.5 2, Rango dissoc inh 6% and miR-21 FLuc -4%.
CCc1nc(SCC#N)c(C#N)cc1C was read as GLA inh pH 4.5 3 and miR-21 FLuc 14%.
For COc1ccc2cc(CN(CCCN3CCOCC3)Cc3nnnn3C3CCCCC3)c(=O)[nH]c2c1 the results were Rango complex inh -1.6%, GLA inh pH 4.5 4, Rango dissoc inh -8% and miR-21 FLuc -11%.
For CCCCCOc1ccc(CSc2n[nH]c(C)n2)cc1 the results were Rango complex inh 0.9%, GLA inh pH 4.5 -7, Rango dissoc inh 0% and miR-21 FLuc 1%.
O=C(NC(=S)N(Cc1ccccc1)c1ccccn1)C1CC1 was read as Rango complex inh -2.3%, GLA inh pH 4.5 -1, Rango dissoc inh -2% and miR-21 FLuc -19%.
`COCc1c(C(=O)OCc2c(C)noc2C)oc2ccccc12` gave Rango complex inh -1.9%, GLA inh pH 4.5 0, Rango dissoc inh 4% and miR-21 FLuc -5%.
CCc1nnc(NC(=O)CSc2nc(-c3ccc(F)cc3)cc(-c3ccccc3)c2C#N)s1 was read as Rango complex inh -2.5%, GLA inh pH 4.5 3, Rango dissoc inh inconclusive and miR-21 FLuc -5%.
For Cc1cc(C)c(CSc2ncc(-c3ccc([N+](=O)[O-])cc3)[nH]2)c(C)c1 the results were Rango complex inh inconclusive, GLA inh pH 4.5 4, Rango dissoc inh -7% and miR-21 FLuc -1%.
Screening O=C(Nc1cc(Br)c(O)c(Br)c1)c1cccc(NC(=O)c2ccco2)c1 returned Rango complex inh -0.4%, Rango dissoc inh -4% and miR-21 FLuc -1%.
For CC12CC3(C)CC(C)(C1)CC(C(=O)NC(=S)N1CCCC1)(C2)C3 the results were Rango complex inh 0.5%, GLA inh pH 4.5 10, Rango dissoc inh 2% and miR-21 FLuc 1%.
Cc1ccc(S(=O)(=O)N2CCN(C(=O)CCC(=O)NCCc3ccc(S(N)(=O)=O)cc3)CC2)c(C)c1 was read as Rango complex inh -0.3%, GLA inh pH 4.5 2, Rango dissoc inh -4% and miR-21 FLuc 0%.
For CCOc1cnc(C(=O)NNC(=O)c2ccccc2Br)o1 the results were Rango complex inh -1.9%, GLA inh pH 4.5 -3, Rango dissoc inh -7% and miR-21 FLuc -1%.
Screening Cc1cccc2cc(C(c3nnnn3C(C)(C)C)N(Cc3ccco3)CC3CCCO3)c(=O)[nH]c12 (stereo not drawn) returned Rango complex inh -6.1%, GLA inh pH 4.5 -4, Rango dissoc inh 0% and miR-21 FLuc 0%.
For Cc1ccccc1NC(=O)c1ccc(OCC(=O)Nc2ccccc2F)cc1 the results were Rango complex inh -4.1%, GLA inh pH 4.5 3, Rango dissoc inh -4% and miR-21 FLuc -2%.
Cc1cc(=O)oc2cc(NC(=S)NCc3cccnc3)ccc12 was read as Rango complex inh -4.2%, GLA inh pH 4.5 7, Rango dissoc inh 15% and miR-21 FLuc -51%.
`COc1ccccc1NS(=O)(=O)c1cc(C(=O)NCC(c2ccco2)N2CCCCC2)ccc1C` (stereo not drawn) gave Rango complex inh 1.4% and Rango dissoc inh 9%.
For O=C(CSc1nccc(=O)[nH]1)Nc1ccccc1Sc1ccccc1 the results were Rango complex inh 0.7%, GLA inh pH 4.5 7, Rango dissoc inh 10% and miR-21 FLuc 4%.
`COc1cccc(CC(=O)OCC(=O)c2cc(OC)c(OC)c(OC)c2)c1` gave Rango complex inh -3.2% and Rango dissoc inh 8%.
COc1ccc(S(=O)(=O)Cc2ccc(C(=O)NCC(OC)OC)o2)cc1 was read as Rango complex inh -0.3%, Rango dissoc inh 26% and miR-21 FLuc 2%.
For O=C(N/N=C/c1cccnc1)c1cccc(NC(=O)c2cccc(Br)c2)c1 the results were Rango complex inh 0.5%, Rango dissoc inh 4% and miR-21 FLuc -7%.
`Cc1ccc(S(=O)(=O)N2CCN(CC(=O)NCC3(N4CCOCC4)CCCCC3)CC2)cc1` gave Rango complex inh 5.0% and Rango dissoc inh -16%.
CC(C)NC(=O)c1ccc(NC(=O)CC2SC(N3CCCC3)=NC2=O)cc1 (stereo not drawn) was read as Rango complex inh 3.0% and Rango dissoc inh -14%.
Screening O=C(Cc1ncc(C(F)(F)F)cc1Cl)N1CCN(c2cccc(Cl)c2)CC1 returned Rango complex inh 0.5%, GLA inh pH 4.5 0, Rango dissoc inh 0% and miR-21 FLuc -1%.
Screening COc1cccc(C(=O)NC2CC3CCCC(C2)N3CC(=O)Nc2ccccc2C(F)(F)F)c1 (stereo not drawn) returned Rango complex inh -2.9%, Rango dissoc inh 0% and miR-21 FLuc inconclusive.
`Cc1cc(C2(c3ccc(O)c(C)c3)C(=O)N(C)c3ccc(Br)cc32)ccc1O` gave Rango complex inh -1.5% and Rango dissoc inh 0%.
Screening O=C(CCC1CCCC1)N1CCC(N2CCN(c3ccccc3)CC2)CC1 returned Rango complex inh -4.2%, GLA inh pH 4.5 1, Rango dissoc inh 4% and miR-21 FLuc -1%.
For C=CCn1cccc(/C=C/C(=O)c2ccc(C(C)(C)C)cc2)c1=S the results were Rango complex inh 1.0%, GLA inh pH 4.5 1, Rango dissoc inh -13% and miR-21 FLuc inconclusive.
`Cc1nn(Cc2ccccc2)c(C)c1NC(=O)CCC(=O)O` gave Rango complex inh 0.1%, GLA inh pH 4.5 -3, Rango dissoc inh 2% and miR-21 FLuc -7%.
`CCOc1ccc(OCCC(=O)Nc2cccc(S(=O)(=O)N3CCCC3)c2)cc1` gave Rango complex inh -1.0% and Rango dissoc inh 13%.
`CCn1c(CC(=O)Nc2ccc(C)c(Cl)c2)nnc1SCc1ccc(Cl)c(Cl)c1` gave Rango complex inh 2.0%, GLA inh pH 4.5 9, Rango dissoc inh 4% and miR-21 FLuc 0%.
COc1ccc(/C=N/Nc2nc3ccccc3s2)cc1O was read as Rango complex inh 6.3%, GLA inh pH 4.5 -27[21.1 µM], Rango dissoc inh 0% and miR-21 FLuc 5%.
Screening C=CCSc1nc2sc3c(c2c(=O)[nH]1)CCC3 returned Rango complex inh -5.8%, GLA inh pH 4.5 -6, Rango dissoc inh -1% and miR-21 FLuc 0%.
For CCCn1c(C)cc(C(=O)COC(=O)c2ccc(Cl)c(S(=O)(=O)N3CCCC3)c2)c1C the results were Rango complex inh 0.3%, GLA inh pH 4.5 -2, Rango dissoc inh 0% and miR-21 FLuc -20%.
`CN(C)C(=O)CCSc1nnc(-c2ccncc2)o1` gave Rango complex inh -0.4%, GLA inh pH 4.5 7, Rango dissoc inh 1% and miR-21 FLuc -4%.
CCOC(=O)C#CC(CCc1ccccc1)OS(N)(=O)=O (stereo not drawn) was read as Rango complex inh 0.9%, Rango dissoc inh -7% and miR-21 FLuc 1%.

Assay outcomes deposited in PubChem BioAssay by National Center for Advancing Translational Sciences (NCATS).
